# OX1R antag-1 – OX1R (HCRTR1) antagonists, primary screen, fluorescence, CHO/OX1R cells, Fluo-8 calcium, orexin A. Orexin/Hypocretin receptor type 1 (Homo sapiens), O43613. Fluo-8 calcium fluorescence. inhibition, % at 5 µM. hit rate 0.43% among 330,000. AID 434989, 2010;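 active = inhibition above its plate's threshold, mean inhibition of all tested compounds on the plate plus 3 SD, cut at about 37% in these data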;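 also: 0% = orexin A challenge wells and 100% = SB-334867-A antagonist wells; not every result past the cut was called active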
# Target sequence (O43613 whole entry, looked up): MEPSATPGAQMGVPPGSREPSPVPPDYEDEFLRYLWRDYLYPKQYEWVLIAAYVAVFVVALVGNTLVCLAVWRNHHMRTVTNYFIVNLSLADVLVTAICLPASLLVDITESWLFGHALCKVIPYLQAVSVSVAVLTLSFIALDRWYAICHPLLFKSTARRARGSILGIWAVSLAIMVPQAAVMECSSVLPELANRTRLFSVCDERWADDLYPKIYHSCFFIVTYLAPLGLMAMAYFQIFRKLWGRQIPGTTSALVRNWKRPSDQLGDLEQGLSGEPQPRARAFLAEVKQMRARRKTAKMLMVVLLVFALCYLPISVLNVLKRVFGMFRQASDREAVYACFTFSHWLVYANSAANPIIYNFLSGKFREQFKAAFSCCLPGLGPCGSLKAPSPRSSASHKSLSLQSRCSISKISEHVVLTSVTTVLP
# OX1R antag-2 – antagonists of human orexin 1 receptor (OX1R); OX1R-expressing cells, FRET antagonist read-out; inhibition, % at 6.6 µM; hit rate 1.8% among 330,000; AID 485270, 2010; in the data active = inhibition mostly above about 38%, no sharp cut-off; inactive = mostly below about 40%;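 also: 0% = agonist challenge alone and 100% = reference antagonist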
# An asterisk follows results filed as active. An excerpt; most or all hits stand in other tables.
# Sample of the layout:
SMILES,OX1R antag-1,OX1R antag-2
CC(Cc1cccnc1)NC(=O)c1cc(COc2c(F)cccc2F)on1 (stereo not drawn),-26,12
CCCCN(C(=O)Cn1ncc(Cl)c(Cl)c1=O)c1c(N)n(CC(C)C)c(=O)[nH]c1=O,-9,12
Cc1ccc(C)c(OCCC(=O)OCC(=O)NC(=O)NC2CCCC2)c1,-24,11

# This part in full (from the top)
SMILES,OX1R antag-1,OX1R antag-2
CC(Cc1cccnc1)NC(=O)c1cc(COc2c(F)cccc2F)on1 (stereo not drawn),-26,12
CCCCN(C(=O)Cn1ncc(Cl)c(Cl)c1=O)c1c(N)n(CC(C)C)c(=O)[nH]c1=O,-9,12
Cc1ccc(C)c(OCCC(=O)OCC(=O)NC(=O)NC2CCCC2)c1,-24,11
c1ccc(C2=NNC(=NC3CC3)SC2)cc1,-10,4
O=C(c1cc2ccccc2o1)N1CCN(Cc2ccc3c(c2)OCO3)CC1,-30,5
CC(C)[C@H](NC(=O)[C@@H]1Cc2ccccc2CN1)C(=O)NC1CCCCC1,-26,16
Cc1c(Cl)cccc1NC(=O)CC1Sc2ccccc2NC1=O (stereo not drawn),-10,9
C=CCOc1cc(OC)c(OC)c(OC)c1,-18,21
N#Cc1cc(S(=O)(=O)c2ccc(Cl)cc2)c(N)[nH]c1=O,5,5
COc1cc(C(=O)N/N=C(\C)Cn2nc([N+](=O)[O-])cc2C)ccc1O,6,1
O=c1cc(CSc2ccccn2)c2ccccc2[nH]1,-10,22
CC(C)CN(C(=O)CSc1nnc2ccccn12)c1c(N)n(CC(C)C)c(=O)[nH]c1=O,-3,4
Cc1c(C2=CCN(S(=O)(=O)c3ccc(Cl)cc3)CC2)c2ccccc2n1C,-19,16
O=C(O)Cn1nc2c3c(cccc3c1=O)-c1ccccc1-2,-13,34
O=S1(=O)CCN2C(c3ccco3)=CSC2=N1,-11,19
Cn1c2ccccc2c2cnn(CC(=O)O)c(=O)c21,7,6
O=C(NCC(=O)N(Cc1cccs1)C(C(=O)NC1CCCC1)c1cccnc1)c1ccco1 (stereo not drawn),-20,16
COc1cccc(NC(=O)CN2C(=O)COc3ccc(S(=O)(=O)N4CCCCCC4)cc32)c1,-7,15
Cc1c(C(=O)NCCCN2CCOCC2)oc2c1C1(CCC2)SCCS1,-19,13
C/[N+]([O-])=C/c1c(OCc2ccccc2)ccc2ccccc12,-27,-10
Cc1ccc2nc(N(CCN(C)C)C(=O)c3cc(Cl)sc3Cl)sc2c1,-15,33
COc1ccc(CCN(C(=O)/C=C/C(=O)O)C2CC(=O)N(c3ccccc3)C2=O)cc1 (stereo not drawn),-10,24
Nc1nnnn1/N=C/c1ccccc1C(F)(F)F,-24,-2
COc1ccc(N=C2SC(C(=O)N3CCN(c4ccccc4)CC3)CC(=O)N2C)cc1 (stereo not drawn),-30,3
Cc1nn(CC(=O)N(C)C)c(=O)c2ccccc12,-8,3
Cc1ccc(C)n1/N=C1/NC(=O)CS1,-16,22
CCN(CC)c1ccc(NC(=O)c2cccnc2)c(C)c1,-11,10
CCN1CCN(CC(O)COCc2ccccc2)CC1 (stereo not drawn),-4,1
Cc1[nH]c(C)c(S(=O)(=O)N2CCC(C)CC2)c1C(=O)N1CCCC1,-8,12
CCOC(=O)C1(Cc2ccccc2C)CCCN(C(=O)c2ccnn2C)C1 (stereo not drawn),-21,10
Cc1cc(NC(=O)CCCn2ccc([N+](=O)[O-])n2)n(Cc2ccc(F)cc2)n1,-22,29
CCCN(CC(=O)Nc1ccccc1C)C(=O)Cc1c(C)nc2ccccc2c1C,-37,3
COc1cccc(CN(C)C(=O)CNC(=O)c2sc3ccccc3c2Cl)c1OC,-43,33
CCc1nnc(NC(=O)Cc2ccc(OC)c(OC)c2)s1,-22,3
COc1ccc(S(=O)(=O)NCc2cc(-c3ccccc3Cl)no2)cc1,-7,38
O=C(COC(=O)c1cccc(F)c1)Nc1cccnc1Cl,0,-1
CC(C)C(NS(=O)(=O)c1cccc(C(F)(F)F)c1)C(=O)O (stereo not drawn),-14,6
O=C(Nc1ccc(S(=O)(=O)Nc2nccs2)cc1)c1nn(-c2ccccc2)ccc1=O,-5,19
CC(C)N1C(=O)C2C(C(=O)NCc3ccccc3)C3C=CC2(O3)C1C(=O)NC(C)(C)C (stereo not drawn),-9,1
O=c1cc(O)nc(-c2ccccc2)s1,-26,13
CCCCCCCCCOC(=O)C[n+]1csc(CCO)c1C,0,16
Cc1ccc(C(C)C)c(OCCNC(=S)Nc2cccc3ccccc23)c1,6,19
COC(=O)c1ccccc1NC(=O)c1cc(C2CC2)on1,-38,16
CCN1CCCC1CNC(=O)CN(C)S(=O)(=O)c1ccc(Cl)cc1 (stereo not drawn),-17,15
Clc1ccc(-c2nn3c(C4COc5ccccc5O4)nnc3s2)cc1 (stereo not drawn),-37,4
Cc1ccc(C)c(N2CCN(S(=O)(=O)c3ccc4c(c3)oc(=O)n4C)CC2)c1,-6,4
Cn1c(-c2ccc(F)cc2)cnc1NCc1cc2c(cc1[N+](=O)[O-])OCO2,-27,42
CCc1c(C)c(C#N)c2nc3ccccc3n2c1NCCN(C)C,-7,15
CCC(C)(C(=O)NC1CCCCC1)N(CC1CCCO1)C(=O)CNC(=O)c1ccccc1 (stereo not drawn),-22,10
CCOC(=O)N1CCC(=NNC(=O)NC2CCCCC2)CC1,-5,10
CCN1C(=O)C(C)S/C1=N\S(=O)(=O)c1ccc(Cl)s1 (stereo not drawn),-27,0
COc1ccc(N2CCN(C(=N)/C(C(C)=O)=C(\C)O)CC2)cc1,-5,2
CC(C)OCCCNC(=S)N1CCC(C(=O)c2ccc3c(c2)OCCO3)CC1,-6,17
CCOc1cc(C2Nc3ccccc3C(=O)N2c2ccccc2OC)ccc1O (stereo not drawn),-27,19
Cc1sc(NC(=O)CN2CCOCC2)c(C(=O)c2ccccc2)c1C,-19,5
Cc1ccc(NC(=O)C2CCCCC2C(=O)O)cc1Cl (stereo not drawn),-15,14
O=C1Nc2ncccc2OC1CCCl (stereo not drawn),-7,3
Nc1nc(SCC(=O)Nc2cc(Cl)ccc2Cl)n[nH]1,-8,9
Cc1cc(OCC(=O)N2CCN(c3ccccc3)CC2)c2c(C)cc(=O)oc2c1,-11,8
N#Cc1c(NCCCO)nc(-c2ccco2)c2c1CCCC2,-30,26

# Next section, starting with the last four of the part before.
SMILES,OX1R antag-1,OX1R antag-2
O=C1Nc2ncccc2OC1CCCl (stereo not drawn),-7,3
Nc1nc(SCC(=O)Nc2cc(Cl)ccc2Cl)n[nH]1,-8,9
Cc1cc(OCC(=O)N2CCN(c3ccccc3)CC2)c2c(C)cc(=O)oc2c1,-11,8
N#Cc1c(NCCCO)nc(-c2ccco2)c2c1CCCC2,-30,26
O=C(c1ccc2c(=O)n(Cc3ccco3)c(=S)[nH]c2c1)N1CCN(Cc2ccccc2)CC1,-18,5
COc1ccccc1C(=O)Nc1ccnn1C1CCN(Cc2csc(C(C)=O)c2)CC1,-40,10
Cc1cccc2cc(C#N)c(SCC(=O)NNC(=O)Cc3ccccc3)nc12,-10,5
O=c1ccc2cc([N+](=O)[O-])c(CCO)cc2o1,-15,31
OCCCN1CCN(CCOc2ccccc2-c2ccccc2)CC1,-20,10
CCOC(=O)N1CCN(Cc2nc3cc(NC(C)=O)ccc3n2CC)CC1,-12,-3
CC(=O)N1c2ccc(S(=O)(=O)N3CCCC(C(=O)NCc4ccccc4Cl)C3)cc2CC1C (stereo not drawn),-18,0
CS(=O)(=O)N1CCCC(C(=O)N2CCc3ccccc3C2)C1 (stereo not drawn),-9,1
CCN1CCC2(CC1)Oc1c(OC)cccc1C1CC(c3cccnc3)=NN12 (stereo not drawn),-19,3
CSc1ccccc1C(=O)OCC(=O)NCCN1C(=O)CSC1=O,6,12
CCOc1cc2nc3c4ccccc4n(C)c3nc2cc1OCC,-3,38
Cn1cc(S(=O)(=O)N2CCCC2)cc1C(=O)NCc1ccccc1Cl,-25,9
CCn1cc(C(=O)NCCc2ccccc2)c(=O)c2cc(F)c(N3CCN(C)CC3)cc21,-28,17
O=c1cc(C(F)(F)F)nc(-c2ccccc2OC(F)(F)F)[nH]1,2,10
CC(C)Cc1csc(NC(=O)c2ccc(F)cc2)c1C(=O)O,-21,35
Nc1ncnc2c1cnn2-c1ccccc1,6,2
Cn1c(CC(=O)NNC(=O)c2cncc(Br)c2)nc2ccccc21,10,-1
COc1cccc(OCc2nc3ncc(Br)cc3[nH]2)c1,-10,1
Cc1ccc(-c2nc(CS(=O)CC(=O)NCc3ccc(Cl)cc3)c(C)o2)cc1 (stereo not drawn),-35,29
Cc1ccccc1NCC(=O)N/N=C/C(Br)=C/c1ccccc1,-6,-7
Cc1ccsc1C(=O)OCC(=O)N(C)c1c(N)n(Cc2ccccc2)c(=O)[nH]c1=O,-17,5
CCCCc1c(C)c2ccc(OCC(C)=O)cc2oc1=O,-15,8
O=C(Nc1ccc(N2CCOCC2)nc1)c1c(F)cccc1F,-17,-3
CCn1c(COc2ccccc2C)nnc1SCC(=O)CC(=O)Nc1ccccc1OC,-29,14
COc1ccc(CNC(=O)c2cc(S(=O)(=O)N3CCCC3)cn2C)cc1,-20,13
CCCCC(=O)N/N=C(\C)CC(=O)Nc1cc(Cl)ccc1OC,-6,2
COc1ccc(N2CCC(CNC(=S)Nc3c(C)cccc3C)C2)cc1 (stereo not drawn),-12,7
Cc1cccc(C(=O)Nc2c(C(=O)N(C)C)cnn2-c2ccccc2)c1,-20,14
COc1c(S(=O)(=O)Nc2cccnc2)ccc(Cl)c1Cl,-1,26
Cc1ccc(-n2cnn(-c3ccc([N+](=O)[O-])cc3[N+](=O)[O-])c2=O)cc1,-21,22
O=C(NCC1CCCO1)C1CCN(S(=O)(=O)c2cccc3nonc23)CC1 (stereo not drawn),-9,58
CC1CCc2cc(F)ccc2N1S(=O)(=O)c1ccc(Cl)nc1 (stereo not drawn),-18,6
CCOC(=O)c1cc(C(=O)Nc2ccc(S(=O)(=O)Nc3ccc(OC)cc3)cc2)nn1C,5,28
Cc1noc(NS(=O)(=O)c2ccc(N/C=C/C(=O)c3ccncc3)cc2)c1C,1,13
CCOC(=O)c1ccc(OC(=O)CCCCCN=C(N)N)cc1,-10,15
COc1ccc(CN2CCN(S(=O)(=O)c3ccc(C)cc3)CC2)cc1OC,-18,4
CN(CC(=O)Nc1ccc(N2CCOCC2)cc1)C(=O)c1cc(S(=O)(=O)N(C)C)ccc1Cl,-11,17
COc1ccc(NC(=O)C2CC(=O)N(C)C(=Nc3ccc4c(c3)OCO4)S2)cc1 (stereo not drawn),-8,21
CCOC(=O)/C=c1\sc2n(c1=O)CCN=2,-12,34
Cc1ccc(NC(=O)N2CCSc3ccccc32)cc1,-21,2
Cc1ccc2c(c1)N(CC(=O)NCCc1ccccc1)C(=O)c1cccnc1O2,-20,18
COc1ccc(NC(=O)/C(=C\c2cccnc2)NC(=O)c2cccs2)cc1,-7,3
COc1c(S(=O)(=O)n2nc(C)cc2C)ccc(Cl)c1Cl,-17,20
COc1cc(NC(=O)Cc2cccs2)cc(OC)c1,-3,14
CC1CN(C(=O)CCc2ccccc2)C(C)CN1C(=O)CCc1ccccc1 (stereo not drawn),-26,20
Cc1nc(NC(=O)CSc2nncs2)c(Cl)cc1Cl,-11,9
CN(C)CCCCCCCCCCC(=O)/C=N/O,1,20
COc1ccc(NC(=O)CSCc2ccc([N+](=O)[O-])cc2)cc1OC,-19,21
CCCc1cc(=O)[nH]c(SCc2ccccc2Cl)n1,-22,10
O=c1oc2cc(O)ccc2c2ccccc12,-3,8
O=c1[nH]c(NCc2ccccc2)nc2c1CCCC2,-23,15
C[C@H](CO)N1C[C@H](C)[C@@H](CN(C)C(=O)Nc2ccc(C(F)(F)F)cc2)Oc2ccc(NC(=O)c3ccncc3)cc2C1=O,-5,1
Cc1cccc(C)c1OCc1cc(C(=O)NCC2COCCO2)no1 (stereo not drawn),-14,2
Cc1ccc2c(C)c(C(=O)N3CCN(c4ccncc4)CC3)oc2c1C,-13,10
O=C(CCN1C(=O)S/C(=C\c2ccccc2)C1=O)Nc1ccc(O)cc1C(=O)O,-7,17
COc1ccccc1C1C(C(N)=O)=C(C)Nc2nc(-c3ccccc3Cl)nn21 (stereo not drawn),-12,-1
CCC(C)C(=O)Nc1nc(C)c(-c2csc(Nc3ccccc3OC)n2)s1 (stereo not drawn),-40,28
O=S(=O)(NCC(c1cccnc1)N1CCOCC1)c1ccccc1 (stereo not drawn),-14,13
O=C(CCCN=C1NS(=O)(=O)c2ccccc21)OCc1cc([N+](=O)[O-])cc2c1OCOC2,-29,6
Brc1cccc(Cn2c(-c3cncs3)nc3ccccc32)c1,-32,15
# Continuation:
SMILES,OX1R antag-1,OX1R antag-2
CC1CN(c2ccc(S(=O)(=O)N3CCOCC3)cn2)CC(C)O1 (stereo not drawn),3,6
COc1ccc(Cc2c3cc(OC)c(OC)cc3cc[n+]2C)cc1OC,-1,16
Cc1cc(C(=O)Nc2ccccc2)oc(=O)c1,-15,12
CCOC(=O)C1=C(C)Nc2ncnn2C1c1cc(OC)ccc1OC (stereo not drawn),-9,11
COCCNC(=O)CSc1nc2cc3c(cc2c(=O)n1CCCC(=O)NCc1ccc(OC)cc1)OCO3,-7,7
COc1ccc(CNC(=O)CN2CCN(S(=O)(=O)c3cccs3)CC2)cc1OC,-19,12

# Some of the entries above, set out differently:
# Results follow in this order: OX1R antag-1, OX1R antag-2
COc1ccc(Cc2c3cc(OC)c(OC)cc3cc[n+]2C)cc1OC
 : -1, 16
CC1CN(c2ccc(S(=O)(=O)N3CCOCC3)cn2)CC(C)O1 (stereo not drawn)
 : 3, 6
CCOC(=O)C1=C(C)Nc2ncnn2C1c1cc(OC)ccc1OC (stereo not drawn)
 : -9, 11
Cc1cc(C(=O)Nc2ccccc2)oc(=O)c1
 : -15, 12
COCCNC(=O)CSc1nc2cc3c(cc2c(=O)n1CCCC(=O)NCc1ccc(OC)cc1)OCO3
 : -7, 7
COc1ccc(CNC(=O)CN2CCN(S(=O)(=O)c3cccs3)CC2)cc1OC
 : -19, 12
